# Assay outcomes from PubChem BioAssay.
# MgrA-DNA mod: S. aureus MgrA activity modulators, primary screen, biochemical, S. aureus Newman, fluorescence polarization. AID 602314, 2012. actives 0.13% (n = 84,000). MgrA-DNA binding. inhibition, %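 (about 10 µg/mL by stock and volumes)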;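 active = above 50% in either of two replicates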;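 also: 0% = protein plus DNA without compound and 100% = DNA alone without protein; higher means less MgrA bound to DNA so lower polarization; one replicate is shown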
# S aureus helic: inhibitors of S. aureus replicative helicase, primary screen, biochemical, fluorescence unwinding readout | AID 485395, 2010 | purified S. aureus helicase, fluorescence unwinding assay; about half of the hits fall short of the stated cut | inhibition, %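 (tested at about 80 µM)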 | actives 0.05% (n = 120,000) | replicative DNA helicase (DnaC/DnaB), Staphylococcus aureus;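 active = both duplicates at 50% or more, or one of them with a favoured structure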;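 also: 0% = mean of negative control wells and 100% = mean of positive control wells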
# Starred values were filed as active, the others as inactive; x = no result given; & = joins results of further samples.
No.	Compound	S aureus helic	MgrA-DNA mod
1	CC(C)(C)C1=CC(=O)C(C(C)(C)C)=CC1=O	x	3.5
2	CCCCCCOc1ccc(C(=O)OCC(=O)Nc2c(C)n[nH]c2C)cc1OC	-8	x
3	O=C(Oc1ccc(Br)cc1F)C1CC(=O)N(c2ccc3c(c2)OCCO3)C1 (configuration not stated)	7	x
4	O=C(NC1CC1)C1Cc2ccccc2CN1S(=O)(=O)c1ccc(F)cc1 (configuration not stated)	-16	-1.9
5	CC(C)CCn1c(=O)c2ccccc2n2c(CCC(=O)N3CCC(C(N)=O)CC3)nnc12	-23	x
6	O=C(CC(c1ccccc1)c1ccccc1)NC1CCCC1	16	0.7
7	CCOC(=O)C(C#N)c1c(F)c(F)c(Br)c(F)c1F (configuration not stated)	-4	-1.3
8	CC(NC(=O)CN1CCc2ccccc2C1)c1ccccc1 (configuration not stated)	9	x
9	C/C(=N\O)C(C)(C)Nc1ccc2c(c1)OCO2	x	-6.8
10	CCCCOC(=O)c1ccc(N2C(=O)CC(N3CCC(C(N)=O)CC3)C2=O)cc1 (configuration not stated)	12	x
11	CN(CC1COc2ccccc2O1)S(=O)(=O)c1csc(C(N)=O)c1 (configuration not stated)	22	x
12	CCOc1ccc(CCCN)cc1OCC	-1	-3.1
13	NC(N)=NCCN1CCCCCCC1	x	0.8&1.6
14	CCn1c(C)[n+](CC)c2ccc(S(=O)(=O)NC)cc21	2	1.3
15	N#CC1(NC(=O)CSc2nnnn2-c2ccc(OC(F)(F)F)cc2)CCCC1	-3	x
16	CCC(Sc1ncccc1C(=O)O)C(=O)N1CCCC1 (configuration not stated)	6	-4.1
17	CCn1c(CNC(=O)CSc2nnc(C)n2-c2ccc(C)cc2)cc2ccccc21	-5	-0.8
18	CC(C(=O)NN)n1nnc(-c2cc(C(F)(F)F)cc(C(F)(F)F)c2)n1 (configuration not stated)	5	x
19	CCOC(=N)c1cccc(C(F)(F)F)c1	x	-4.3
20	COC(=O)c1cnn(-c2c(Cl)cccc2Cl)c1C=C(C#N)C#N	0	x
21	Cc1nc(-c2sc3ccccc3c2C)cs1	x	-1.1
22	Cn1cnnc1SCC(=O)c1ccccc1	5	-2.8
23	O=C(NCC(c1ccc[nH]1)C(F)(F)F)Nc1ccccc1 (configuration not stated)	x	2.2
24	CNC(=O)COC(=O)c1c2c(nc3ccccc13)CCCC2	-14	x
25	CC(C)Sc1c(Cl)cccc1NC(=O)c1ccc(Cl)cc1	x	-0.5
26	COc1ccc(C(=O)OCC(=O)Nc2sc3c(c2C#N)CCC3)cc1OC	13	-1.2
27	O=S(=O)(Nc1cccc2nsnc12)c1cccs1	x	3.1
28	O=C(NC1CCCC1)C1c2ccccc2C(=O)N2CCc3ccccc3C12 (configuration not stated)	-1	x
29	Cc1ccc(C)c(SCC(=O)Nc2cc(C)nn2-c2ccc(F)cc2)c1	-12	0.6
30	CCc1nc2sc3c(NCCO)ncnc3c2c2c1CCCC2	8	x
31	CSc1ccc(S(=O)(=O)NC2CC2)cc1	-4	0.2
32	CCN1C(=O)C(=Cc2cccn2-c2ccc(O)cc2)C(=O)N(CC)C1=S	-8	10
33	O=c1[nH]c2ccc(NS(=O)(=O)c3ccc(Br)cc3)cc2[nH]1	11	0.2
34	N#C/C(C(=S)Nc1ccccc1)=C1/NN=C(N2CCOCC2)N1c1ccccc1	-21	x
35	CC(C)(Oc1ccc2ccccc2c1)C(=O)O	x	-4.3
36	CC1CCCN(C(=O)COc2ccc(-c3nc4ccccc4s3)cc2)C1 (configuration not stated)	-21	1.1
37	Cc1cc(-c2ccc(S(=O)(=O)NCCc3ccccc3)cc2)on1	-25	x
38	CN(C)c1ccc(/C=C/C=c2\sc3nc4ccccc4n3c2=O)cc1	-15	1.6
39	COc1ccc(C2CC(C(F)(F)F)n3nc(C(=O)N4CCN(C(=O)c5ccccc5)CC4)c(Cl)c3N2)cc1OC (configuration not stated)	x	-1.6
40	CSc1nnc2c(n1)OC(c1ccc(C)o1)Nc1ccccc1-2 (configuration not stated)	x	0.0
41	NC(=S)n1ncc(C(=O)O)c1NC(=O)c1ccccc1Cl	-8	x
42	c1ccc(-c2nc3ccccn3c2NC2CCCC2)nc1	5	4.4
43	O/N=C/c1ccc(-c2ccc(Br)cc2)o1	15	x
44	CCCn1c(C)cc(/C=C(\C#N)C(=O)N(C)Cc2ccc(Cl)c(Cl)c2)c1C	-1	x
45	CCN(CC)CCCN1C(=O)C2C3C=CC(C3)C2C1=O (configuration not stated)	3	2.3

# One compound at a time (already shown). Order of values: S aureus helic, MgrA-DNA mod
# O=C(Oc1ccc(Br)cc1F)C1CC(=O)N(c2ccc3c(c2)OCCO3)C1 (configuration not stated) as listed: 7, x
# Cc1ccc(C)c(SCC(=O)Nc2cc(C)nn2-c2ccc(F)cc2)c1 as listed: -12, 0.6
# CNC(=O)COC(=O)c1c2c(nc3ccccc13)CCCC2 as listed: -14, x
# CC(C)(C)C1=CC(=O)C(C(C)(C)C)=CC1=O as listed: x, 3.5
# Cn1cnnc1SCC(=O)c1ccccc1 as listed: 5, -2.8

# Next records follow.
No.	Compound	S aureus helic	MgrA-DNA mod
46	O=C(O)C1CSC(c2c(Cl)cccc2Cl)N1 (configuration not stated)	x	0.4
47	O=C(Nc1ccc(S(=O)(=O)N2CCCCC2)cc1)c1ccc(F)cc1	-21	x
48	CC(C)NC(=O)c1ccccc1-c1ccccc1C(=O)NC(C)C	x	-1.4
49	Cn1cnnc1Sc1nc(CN2CCOCC2)nc2scc(-c3ccccc3)c12	-3	x
50	O=C1N/C(=N/c2ccccn2)SC1Cc1ccc(Cl)cc1 (configuration not stated)	x	3.1
51	COc1ccc(CCn2c(SCC#N)nc3ccccc3c2=O)cc1OC	4	x
52	COC(=O)c1ccc2c(c1)N(Cc1ccc(C)cc1)C(=O)C(OC(C)=O)S2=O (configuration not stated)	7	x
53	N#Cc1ccc(C(=O)NCCc2ccccn2)cc1	-3	x
54	Cc1ccc(-n2cc[nH]c(=O)c2=O)cc1	5	x
55	CCCN(CCC)S(=O)(=O)c1ccc(C(=O)OCCN2C(=O)c3cccc4c(N5CCOCC5)ccc(c34)C2=O)cc1	x	7.6
56	O=C(c1ccccc1)c1sc(Nc2ccc3c(c2)OCCO3)nc1-c1ccccc1	x	1.2
57	CC1CN(/C(N)=N/S(=O)(=O)c2ccc(Cl)c(Cl)c2)CC(C)O1 (configuration not stated)	x	-1.0
58	CN(Cc1ccc(Br)s1)Cn1nnc(-c2ccccc2)n1	15	x
59	N#CC(C(N)=O)=C1CCCCCC1	-22	-2.7
60	C1=C(CCNc2nn3nnnc3c3ccccc23)CCCC1	-3	x
61	O=c1[nH]c2sc3c(c2c2nc(-c4cc(-c5ccccc5)nn4-c4ccccc4)nn12)CCC3	38	x
62	O=C(O)C1CC(=O)N(c2ccc(-c3csnn3)cc2)C1 (configuration not stated)	x	-4.5
63	Cc1ccc(C(c2c(O)ccc3ccccc23)N2CCOCC2)o1 (configuration not stated)	10	x
64	Cn1c2ccc(Br)cc2c2nnc(SCC(=O)N=C3NC(=O)CS3)nc21	10	4.8
65	S=c1sc2ccccc2n1CN1CCCCC1	1	3.8
66	CN1[C@@H](CC(=O)c2ccccc2)CCC[C@H]1C[C@H](O)c1ccccc1	x	-1.4
67	Oc1cccc(C=NCc2ccccc2)c1	-3	3.9
68	Cc1csc(=O)n1CC(=O)O	12	x
69	CCn1c(=O)cc(OCC(=O)N2CCN(c3ccccc3)CC2)c2ccccc21	10	x
70	COc1ccc(-c2c(C#N)nnn2-c2cc(C(F)(F)F)cc(C(F)(F)F)c2)cc1	x	1.1
71	Cn1ccnc1C(=O)c1cc(=O)c2ccccc2o1	-22	-1.0
72	COc1ccc(-c2nc3cccc(C)n3c2NC(C)(C)C)cc1O	0	3.9
73	CC(O)c1nc2ccc(Oc3ccc4nc(C(C)O)[nH]c4c3)cc2[nH]1 (configuration not stated)	-13	14
74	N#C/C(=C\c1ccc(-c2cc(C(F)(F)F)ccc2Cl)o1)C(=O)O	-5	x
75	N#Cc1c(-c2ccco2)c2c([nH]c1=S)CCC2	-2	x

# Arranged by count of non-hydrogen atoms (highest first): some entries from above.
No.	Compound	S aureus helic	MgrA-DNA mod
69	CCn1c(=O)cc(OCC(=O)N2CCN(c3ccccc3)CC2)c2ccccc21	10	x
72	COc1ccc(-c2nc3cccc(C)n3c2NC(C)(C)C)cc1O	0	3.9
71	Cn1ccnc1C(=O)c1cc(=O)c2ccccc2o1	-22	-1.0
68	Cc1csc(=O)n1CC(=O)O	12	x

# Looked up above:
# Reading for NC(N)=NCCN1CCCCCCC1 under MgrA-DNA mod: 0.8&1.6
# Reading for O=C(NC1CC1)C1Cc2ccccc2CN1S(=O)(=O)c1ccc(F)cc1 (configuration not stated) under S aureus helic: -16

# Further entries:
No.	Compound	S aureus helic	MgrA-DNA mod
76	CCOc1ccc(NC(=O)c2cc3cc(Br)ccc3oc2=O)cc1	-26	x
77	O=C1c2ccccc2-c2nn(C(=O)c3cc4c(s3)CCC4)c3cccc1c23	-52	x
78	O=C(Nc1ccccc1C(=O)NC1CCCCC1)c1ccco1	10	1.9
79	O=C(Nc1ccc2oc(-c3cccc(Br)c3)nc2c1)c1ccc([N+](=O)[O-])cc1	x	2.2
80	CC1(C)CC(=O)C2=C(C1)OC1=C(C(=O)CC(C)(C)C1)C2c1ccc(-c2ccccc2[N+](=O)[O-])o1	x	-2.8
81	O=C(c1ccccc1)c1c[nH]c(C(=O)NCCCn2ccnc2)c1	x	-0.7
82	N#Cc1c(Cl)nsc1-c1ccccc1	9	x
83	CC(=O)N1CCc2cc(S(=O)(=O)N3CCCCC3C)ccc21 (configuration not stated)	11	-0.2
84	N#CC(Sc1ccccc1)c1ccccc1 (configuration not stated)	x	11
85	CCOc1ccc(CC(=O)NN2CCOCC2)cc1OCC	9	-0.7
86	Cc1ccc2c(CN(C)Cc3ccccc3)cc(=O)oc2c1	1	x
87	O=C(O)CSCC(=O)Nc1ccc(Oc2cccc(C(F)(F)F)c2)nc1	x	2.9
88	CCO/C(C)=N\Oc1cc(=O)oc2ccccc12	6	1.5
89	Cc1ccc(CN2C(=O)CSc3ccc(NC(=O)Nc4cccc5ccccc45)cc32)cc1	8	1.2
90	CCOc1ccc(CN2CCN(C(=O)c3ccco3)CC2)cc1	-9	-3.3
91	Cc1c(-c2ccnc(-c3ccccc3)n2)sc2nc(C(F)(F)F)nn12	x	-1.1
92	O=C(Oc1cc(OC(=O)c2ccco2)cc(OC(=O)c2ccco2)c1)c1ccco1	5	2.0
93	CCN(CC)C(=O)Cn1cc(C(=O)c2ccco2)c2ccccc21	5	x
94	O=C(CN1C(=O)c2ccccc2S1(=O)=O)N1N=C(c2ccc(Cl)cc2)CC1c1ccco1 (configuration not stated)	9	x
95	COCCn1cnnc1SCC(=O)c1ccc(S(=O)(=O)N2CCCC2)cc1	-5	x
96	Cc1nn(C2CCS(=O)(=O)C2)c2nc(C3CC3)cc(C(=O)O)c12 (configuration not stated)	-6	x
97	CCOC(=O)C1=C(C)NC(=S)NC1c1cccs1 (configuration not stated)	x	2.8
98	On1nnc2cc(C(F)(F)F)ccc21	16	-1.3
99	COc1ccc(N2CCN(C(=O)COC(=O)Cn3c(C)csc3=O)CC2)cc1	4	x
100	CC(C)c1cc(C(C)C)c(S(=O)(=O)NCc2ccccc2)c(C(C)C)c1	5	4.3
101	CCCCC(=O)NCc1ccc(F)cc1	5	3.8
102	Cc1ccc(NC(=S)NNC(C)(C)C)cc1Cl	x	0.1
103	CCC(CO)NC(=O)c1cn(-c2ccccc2)nc1-c1ccc(Cl)cc1 (configuration not stated)	-15	-1.7
104	N#Cc1c(C(F)(F)F)nc(=O)n2ccccc12	-37	x
105	Cc1cc(OCC(=O)NCc2ccco2)c(C)cc1Br	7	8.6
106	O=S1(=O)N=C(N2CCc3ccccc3C2)c2ccccc21	14	x
107	O=C1CCCCCN1CO	-4	x
108	Oc1ccc(-n2ccnc2)cc1	-10	x
109	CC(C)(C)NC(=S)Nc1cc(C(F)(F)F)ccc1N1CCCCC1	x	8.7
110	CC(C)C(NS(=O)(=O)c1cccc2nsnc12)C(=O)O (configuration not stated)	18	x
111	COc1ccc(Br)cc1/C=N/n1cnnc1	15	x
112	C=CCn1cc(C(=O)NCC(OC)OC)c(=O)c2cc(S(=O)(=O)N3CCC(C)CC3)ccc21	-15	x
113	CCOC(=O)c1ncn(Cc2ccc(Cl)cc2)c1C	x	0.1
114	Cc1ccc(NC(=O)COc2ccccc2C(N)=O)cc1F	30	x
115	Cc1ccc(N2COc3ccc4c5c(c(=O)oc4c3C2)CCC5)cc1	29	x
116	CC1=C(c2ccccc2)S(=O)(=O)NC1=NC1CCCCC1C (configuration not stated)	8	x
117	O=C(CSc1nc(C2CC2)nc2ccccc12)N1CCCCC1	-2	0.7
118	CC(=O)Oc1cn(OC(C)=O)c2ccc(Br)cc12	9	2.0
119	CS(=O)(=NS(=O)(=O)c1ccc(Cl)s1)c1ccccc1 (configuration not stated)	x	-0.8
120	CC1CC(C)CN(C(=O)CSc2nnc(-c3ccccc3)o2)C1 (configuration not stated)	-21	x
121	CS(=O)(=O)c1sc(C(=O)NC(=S)Nc2ccc(OC(F)(F)F)cc2)c2c1C=CCC2	x	1.8
122	CC1(C)OC(=O)C(=CNC(C(=O)O)c2ccccc2)C(=O)O1 (configuration not stated)	26	x
123	CN1C(=O)Cc2ccccc21	-4	1.5
124	COc1cc(OC)c(Nc2nc3ccccc3n3cnnc23)cc1Cl	4	x
125	Cc1c(C(=O)COc2nc(-c3cccs3)cc(C(F)(F)F)c2C#N)sc2ccc(Cl)cc12	x	-1.5
126	Cc1ccccc1C(=O)Nc1c(C(=O)N2CCOCC2)oc2ccccc12	-22	x
127	Cc1cc(C)nc(SCC(=O)Nc2nc(=O)c3ccccc3s2)n1	17	0.9

# The list is partial (hit frequency here may not be typical).
